Source: PubChem BioAssay
KCNQ2 inh = KCNQ2 channel blockers in CHO-K1 cells – cell-based, FluxOR thallium flux, B-score, primary screen (AID 2156). B-score at 10 µM. O88943. 20 min; hits give low values; only compounds with negative scores are shown here; some inactives read as strong as hits. 310,000 tested, 1.1% active;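 active means fluorescence ratio B-score at most minus 3 library SDs, with starting brightness B-score within 2 library SDs, cut at about -5.5 in these data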
Target sequence (O88943 whole entry, looked up): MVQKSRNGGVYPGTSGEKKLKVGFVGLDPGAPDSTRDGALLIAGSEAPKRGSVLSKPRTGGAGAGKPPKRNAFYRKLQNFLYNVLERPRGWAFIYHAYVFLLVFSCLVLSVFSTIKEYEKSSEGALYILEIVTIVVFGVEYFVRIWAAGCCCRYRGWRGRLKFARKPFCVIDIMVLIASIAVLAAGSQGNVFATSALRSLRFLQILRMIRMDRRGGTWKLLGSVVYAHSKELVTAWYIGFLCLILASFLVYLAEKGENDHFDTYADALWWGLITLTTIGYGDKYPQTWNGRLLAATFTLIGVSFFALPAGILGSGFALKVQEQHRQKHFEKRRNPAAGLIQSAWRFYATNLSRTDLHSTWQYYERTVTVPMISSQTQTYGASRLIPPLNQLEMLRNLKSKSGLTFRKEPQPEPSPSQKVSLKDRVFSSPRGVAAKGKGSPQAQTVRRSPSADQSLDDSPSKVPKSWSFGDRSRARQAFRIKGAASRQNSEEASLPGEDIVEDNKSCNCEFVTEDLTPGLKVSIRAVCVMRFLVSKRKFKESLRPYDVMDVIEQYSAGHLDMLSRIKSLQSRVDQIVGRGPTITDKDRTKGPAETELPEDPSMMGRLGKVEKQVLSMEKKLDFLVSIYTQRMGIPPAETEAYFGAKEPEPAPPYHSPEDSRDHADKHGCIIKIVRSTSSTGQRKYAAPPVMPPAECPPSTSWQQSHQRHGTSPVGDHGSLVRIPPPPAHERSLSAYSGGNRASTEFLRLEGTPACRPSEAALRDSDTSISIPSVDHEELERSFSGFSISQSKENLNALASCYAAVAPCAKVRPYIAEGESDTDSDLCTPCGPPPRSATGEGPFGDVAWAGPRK
KCNQ2 inh baseline = second read-out of KCNQ2 inh, no call of its own (marks repeat the call); B-score; measured here: initial fluorescence intensity artifact check;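 brightness before thallium and not channel activity; 0 = typical well and far values either way flag optical interference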
Starred values were filed as active, the others as inactive; i = inactive. Some of the compounds tested, so the mix of outcomes need not match the whole.

SMILES	KCNQ2 inh	KCNQ2 inh baseline
CC(C)CNS(=O)(=O)c1ccc(S(=O)(=O)N2CCC3(CC2)OCCO3)cc1	i	-0.2
COc1ccccc1NC(=O)c1cccs1	i	0.42
COc1ccc(-n2c(N)c(C(=O)NCC3CCCO3)c3nc4ccccc4nc32)c(OC)c1 (stereo not given)	i	-0.79
Cc1ccccc1-n1nc(C)c2cc(C(=O)N3CCN(S(=O)(=O)c4ccc(F)cc4)CC3)sc21	i	-0.28
Cc1cc(C)c2nc(-c3cccnc3)cc(C(=O)NC(C)c3cnn(C)c3C)c2c1 (stereo not given)	-7.96*	0.3*
NNC(=S)Nc1cc(S(=O)(=O)N2CCOCC2)ccc1N1CCOCC1	i	-0.06
Cc1onc(-c2ccccc2)c1-c1csc(N/N=C/c2ccccc2)n1	i	-0.58
O=C(Nc1nnc(SCC(=O)N2CCCCC2)s1)c1ccc(F)cc1F	i	0.51
COc1ccc(OC)c(NC(=O)CC2Oc3ccccc3NC2=O)c1 (stereo not given)	i	-0.32
COc1ccc(-n2ncc(Cl)c(Cl)c2=O)cc1	i	0.97
C/C(=N\NC(=O)c1cc(C)nc2ccccc12)c1ccc([N+](=O)[O-])cc1	i	1.02
N#C/C(=C/c1ccc2c(c1)OCO2)C(=O)NCCc1c[nH]c2ccccc12	i	0.33
N#CCOc1ccc(C2=NO[C@@H]3[C@@H]4C[C@@H]([C@H]5C(=O)N(c6ccc7c(c6)OCO7)C(=O)[C@@H]45)[C@H]23)cc1	i	0.23
FC(F)(F)c1ccnc(N2CCN(Cc3cnc(-c4ccccc4)[nH]3)CC2)c1	i	1.3
COc1ccc(OC)c(CNS(=O)(=O)c2cc(-c3cc(C)no3)ccc2OC)c1	i	0.74
CN(C)CCCNC(=O)c1ccc(-c2nc(-c3ccc(Cl)cc3)cs2)cc1	-11.8*	0.01*
Oc1ccc(Br)cc1/C=N/Nc1ncc(-c2ccccc2)cn1	i	-1.16
Cc1ccc(C(=O)Oc2ccc(Br)cc2C(=S)N2CCOCC2)cc1	i	0.31
C=CCSC(=C(C#N)C#N)c1cc2c([nH]1)CCCC2	i	0.29
Cc1cc(C)c(C(=O)CSc2nnc(N)s2)cc1C	i	-0.41
O=C(Nc1ccccc1N1CCCC1)c1cc2ccccc2o1	i	-0.78
CCOCCCNC(=O)C(NC(=O)CNC(=O)c1ccccc1)c1ccccc1 (stereo not given)	i	1.85
Cc1ccc(S(=O)(=O)N2CCC(=O)N(C(COCc3cccc(C(F)(F)F)c3)C(C)C)CC2)cc1 (stereo not given)	i	-1.08
COc1ccc(S(=O)(=O)Cc2ccc(C(=O)NCc3cccs3)o2)cc1	i	-0.1
O=C(C(NS(=O)(=O)c1cccs1)c1ccccc1)N1CCN(c2ccccc2)CC1 (stereo not given)	i	1.16
O=C(NC1CCCCC1)C1CCN(S(=O)(=O)c2cccc3nsnc23)CC1	i	1
Cc1cc(C(F)(F)F)c2c(=O)[nH]c(=O)n(Cc3ccccc3)c2n1	i	0.48
Cc1cc2ccccc2n1CCNC(=O)C1CC1	i	0.59
O=S(=O)(NCc1ccccc1Cl)c1cnc[nH]1	i	1.96
CCOc1cc(C(c2c(C)[nH][nH]c2=O)c2c(C)[nH][nH]c2=O)ccc1OCc1ccc([N+](=O)[O-])cc1	i	-0.45
CCCCN(CCCC)S(=O)(=O)c1ccc2[nH]c(=O)[nH]c2c1	i	0.68
O=C1CCC(c2ccccc2)(C2CCN(Cc3ccccc3)CC2)C(=O)N1 (stereo not given)	i	-0.02
COC(=O)C1C(=O)C2=C(CC1C)NC(C)=C(C(=O)OCCOc1ccccc1)C2c1ccc(C)o1 (stereo not given)	i	-1.86
Cc1ccccc1C(=O)N1CCCC(CCC(=O)N2CCN(c3ccccn3)CC2)C1 (stereo not given)	i	0.05
Cc1ccc(C(=O)Nc2nccc(C)n2)cc1	i	1.98
COc1ccccc1/C=C/C=N/N1CCN(Cc2ccc(Cl)cc2)CC1	i	-0.8
O=C(COC(=O)CNC(=O)C1CCCCC1)Nc1ccc2ccccc2c1	i	0.12
O=c1c2ccccc2cnn1Cc1n[nH]c(=S)n1-c1ccc(F)c(Cl)c1	i	-0.64
Cc1cc(-c2ccccc2)n(-c2ccc(C(N)=O)cc2)n1	i	0.06
CN(/N=C/c1ccc(O)cc1O)c1ncc(C(F)(F)F)cc1Cl	i	1.65
CCOCCCNC(=O)C1CCN(S(=O)(=O)N2CCCC2)CC1	i	1.65
Cc1[nH]c(C)c(S(=O)(=O)N2CCN(c3cccc(Cl)c3)CC2)c1C(=O)N1CCCC1	i	1.23
O=C(CCc1nnc(Cc2c[nH]c3ccccc23)o1)NC(C1CC1)C1CC1	i	0.8
O=C(O)/C(=C\c1ccccc1)c1ccc2ccccc2c1	i	-1.62
COc1ccc(-c2cc(-c3nnc(COC(=O)CC4CC5CCC4C5)o3)c3ccccc3n2)cc1OC (stereo not given)	i	1.24
O=C(CN1CCN(CC(=O)c2ccc(F)cc2)CC1)Nc1ccccc1Cl	i	0.02
CCOC(=O)CSc1nnc(Cc2ccccc2)n1CC1CCCO1 (stereo not given)	i	-0.52
COc1ccc(N(C(=O)c2snc(C(N)=O)c2N)C(C(=O)NC2CCCCC2)c2ccc(C)o2)c(OC)c1 (stereo not given)	i	2.28
CC(=O)c1cn(CCCCCCCn2cc(C(C)=O)c(=O)[nH]c2=O)c(=O)[nH]c1=O	i	0.91
CN(CC(=O)Nc1ccccc1C(F)(F)F)C(=O)COc1ccccc1Cc1ccccc1	i	-0.77
Cc1ccc(NC2=NCC(Cc3ccc(Br)cc3)S2)cc1 (stereo not given)	i	-0.45
Cc1cc(-c2ccco2)n(-c2ccccc2)n1	i	0.2
COc1cc2c(cc1OC)C(c1ccc(N(C)C)cc1)CC(=O)N2 (stereo not given)	i	0.31
CCCCSc1nnc(-c2ccc(C)cc2)c2ccccc12	i	-2.25
NC(=O)c1c(NC(=O)c2ccccc2C(=O)O)sc2c1CCCC2	i	0.49
COc1ccccc1CNC(=O)CCN1C(=O)COc2ccccc21	i	-1.06
CC(C)(C)c1ccc(C(=O)c2c[nH]c(C(=O)NCCCn3ccnc3)c2)cc1	i	3.82
COc1ccccc1C(=O)N/C(=C\c1ccc(Br)cc1)C(=O)NCC(=O)O	i	-1.48
CCN(CC(=O)Nc1ccc(Br)cc1)C(=O)Cc1cccc(F)c1	i	-2.59
Cc1c(NC(=S)NC(=O)C2CCCCC2)c(=O)n(-c2ccccc2)n1C	i	-1.3

The list continues.
SMILES	KCNQ2 inh	KCNQ2 inh baseline
CC(C)CN(C(=O)c1ccco1)c1nc2ccccc2s1	i	1.65
O=C(Oc1ccccc1)c1ccccc1OS(=O)(=O)c1ccccc1	i	-0.01
O=C(COc1ccc([N+](=O)[O-])cc1)Nc1nnc(-c2cccnc2)s1	i	-0.19
COc1ccc(CN(C)C(=S)Nc2ccc(Cl)cc2)cc1	i	0.11
CC(Sc1nc2ccccc2c(=O)n1CC1CCCO1)C(=O)N(C)Cc1ccccc1 (stereo not given)	i	1.66
CCOC(=O)c1c(C)nc2c(c1-c1ccccc1)C(=O)CC(C)(C)C2	i	-0.59
NC[C@@H]1O[C@H](O[C@H]2[C@@H](O)[C@H](O[C@@H]3[C@@H](O)[C@H](N)C[C@H](N)[C@H]3O[C@H]3O[C@H](CO)[C@@H](O)[C@H](O)[C@H]3N)O[C@@H]2CO)[C@H](N)[C@@H](O)[C@@H]1O	i	0.1
Cc1ccc(NC(=O)[C@@H](CC(C)C)NC(=O)[C@@H]2Cc3ccccc3CN2)cc1	i	-0.2
O=C(Nc1ccc(Cl)cc1)C(c1ccccc1)N(CCO)CCO (stereo not given)	i	0.44
O=C(N/N=C/c1cccs1)C(O)c1ccccc1 (stereo not given)	i	2.08
CCCCCC1CC(=O)N(Cc2ccccc2)C(=O)N1 (stereo not given)	i	1.62
[O-]/[N+](=C\c1cccc(Br)c1)c1ccccc1	i	-0.48
CC(C)(C)c1ccc(NC(=O)COC(=O)CCN2C(=O)c3cccc([N+](=O)[O-])c3C2=O)cc1	i	-2.12
COc1ccccc1N1CCN(c2cc(=O)n(Cc3ccc(F)cc3)c(=O)[nH]2)CC1	i	-1.08
CC(=O)NC12CC3CC(C1)CC(C(=O)OCC(=O)c1ccc4c(c1)OCCO4)(C3)C2	i	-2.09
CN(C)CCC(=O)C(Cc1ccccc1)c1ccccc1 (stereo not given)	i	1.22
Cc1cccnc1NC(=O)Cn1nc(-c2ccccc2)oc1=S	i	-1.29
N=c1c(S(=O)(=O)c2ccccc2)cc2c(=O)n3ccccc3nc2n1Cc1ccco1	i	0.85
C=CCn1c(CSCc2ccccc2)nnc1SCC(=O)NCc1ccccc1	-5.55*	2.81*
NC(CC(=O)NC(c1ccccc1)(c1ccccc1)c1ccccc1)C(=O)O (stereo not given)	i	-0.8
CCOc1ccc(NC(=O)C2CCCN(S(=O)(=O)c3ccc4[nH]c(=O)ccc4c3)C2)cc1 (stereo not given)	i	-1.11
CNC(=O)c1sc(-c2cccnc2)nc1C	i	0.27
CCOC(=O)Cc1csc(NC(=O)CCS(=O)(=O)Cc2ccccc2)n1	i	0.19
O=C(Nc1ccccc1[N+](=O)[O-])C1C(c2ccccc2)=C1c1ccccc1	-5.88*	1.09*

Quoted from the entries so far, 15 compounds:
SMILES	KCNQ2 inh	KCNQ2 inh baseline
NC[C@@H]1O[C@H](O[C@H]2[C@@H](O)[C@H](O[C@@H]3[C@@H](O)[C@H](N)C[C@H](N)[C@H]3O[C@H]3O[C@H](CO)[C@@H](O)[C@H](O)[C@H]3N)O[C@@H]2CO)[C@H](N)[C@@H](O)[C@@H]1O	i	0.1
Cc1ccc(NC(=O)[C@@H](CC(C)C)NC(=O)[C@@H]2Cc3ccccc3CN2)cc1	i	-0.2
O=C(Nc1ccc(Cl)cc1)C(c1ccccc1)N(CCO)CCO (stereo not given)	i	0.44
O=C(N/N=C/c1cccs1)C(O)c1ccccc1 (stereo not given)	i	2.08
CCCCCC1CC(=O)N(Cc2ccccc2)C(=O)N1 (stereo not given)	i	1.62
[O-]/[N+](=C\c1cccc(Br)c1)c1ccccc1	i	-0.48
CC(C)(C)c1ccc(NC(=O)COC(=O)CCN2C(=O)c3cccc([N+](=O)[O-])c3C2=O)cc1	i	-2.12
COc1ccccc1N1CCN(c2cc(=O)n(Cc3ccc(F)cc3)c(=O)[nH]2)CC1	i	-1.08
CC(=O)NC12CC3CC(C1)CC(C(=O)OCC(=O)c1ccc4c(c1)OCCO4)(C3)C2	i	-2.09
CN(C)CCC(=O)C(Cc1ccccc1)c1ccccc1 (stereo not given)	i	1.22
Cc1cccnc1NC(=O)Cn1nc(-c2ccccc2)oc1=S	i	-1.29
N=c1c(S(=O)(=O)c2ccccc2)cc2c(=O)n3ccccc3nc2n1Cc1ccco1	i	0.85
C=CCn1c(CSCc2ccccc2)nnc1SCC(=O)NCc1ccccc1	-5.55*	2.81*
NC(CC(=O)NC(c1ccccc1)(c1ccccc1)c1ccccc1)C(=O)O (stereo not given)	i	-0.8
CCOc1ccc(NC(=O)C2CCCN(S(=O)(=O)c3ccc4[nH]c(=O)ccc4c3)C2)cc1 (stereo not given)	i	-1.11

Continued:
SMILES	KCNQ2 inh	KCNQ2 inh baseline
Cc1[nH]n(-c2ccccc2)c(=O)c1/C=N/N1C(=O)c2cccc3cccc(c23)C1=O	i	-0.35
Cn1c(SCC(=O)N2CCCCC2)nc2c(c1=O)SCC2	i	1.64
COc1ccc2[nH]c(=O)c(CN(Cc3ccco3)C(=O)c3ccccc3)cc2c1	i	1.53
COC(=O)c1ccc(COC(=O)c2ccccc2OC)cc1	i	0.01
Nc1cc(C(=O)OCC(=O)NCCCc2ccccc2)ccc1Cl	i	0.03
N#Cc1c2c(c(NCCN3CCOCC3)n3c1nc1ccccc13)CCCC2	i	0.89
COc1ccccc1NC(=S)N(CCc1c(C)[nH]c2ccccc12)Cc1cccs1	i	-0.12
N#Cc1cc(-c2ccccc2)cnc1Sc1ccc(Cl)cc1	-6.81*	0.39*
O=C(NCCc1ccccc1)c1ccccc1NC(=O)C1CC=CCC1C(=O)O (stereo not given)	i	3.08
COc1ccc(OCCCC(=O)Nc2cccc([N+](=O)[O-])c2C)cc1	i	1.02
CCOC(=O)c1cnc(-c2ccccc2)nc1-c1ccccc1	i	-0.41
O=[N+]([O-])c1ccc(N/N=C2/CCCCC2c2ccccn2)c([N+](=O)[O-])c1 (stereo not given)	i	0.68
CCN(c1ccccc1)S(=O)(=O)c1cccc(C(=O)NCc2ccccn2)c1	i	0.53
CCOc1ccccc1C(=O)NCC(=O)NC(C)c1ccc(-n2ccnc2)cc1 (stereo not given)	i	-0.59
CCN(CC(=O)Nc1ccccc1OC)C(=O)c1cc(S(=O)(=O)N2CCCCCC2)ccc1OC	i	2.5
CCOC(=O)c1sc(N/N=C/c2ccc(N(C)C)cc2)nc1C	i	-0.75
CCc1cc(SC#N)cc(C)c1N	i	0.85
Cc1ccc(C)c(S(=O)(=O)N2CCCOC2CNC(=O)C(=O)NCCc2ccco2)c1 (stereo not given)	i	0.26
Cc1ccc2c(c1)cc(C(=O)N1CCN(c3ccccn3)CC1)n2C	i	-0.82
COC(=O)C(Cc1ccc(O)cc1)NC(=O)C(C)Oc1ccccc1 (stereo not given)	i	3.58
CCOc1ccc(Oc2nc(C)cc(OC)n2)nn1	i	-0.3
O=C(NCc1ccco1)c1ccc(-c2ccc(Cl)cc2)o1	i	-0.27
NCCCCCCNS(=O)(=O)c1cccc2c(Cl)cccc12	i	0.64
COc1ccc(S(=O)(=O)N2CCCCC2)cc1NC(=O)C1CC(=O)N(c2ccc3c(c2)OCCO3)C1 (stereo not given)	i	-0.1
O=C(CCCN1C(=O)S/C(=C\C=C\c2ccccc2)C1=O)Nc1ccc(C(=O)O)cc1	i	1.13
CC1(C)CC(=O)C(C=NCCN2CCN(C(=O)C34CC5CC(CC(C5)C3)C4)CC2)=C(O)C1	i	0.76
O=C(CC1Oc2ccccc2NC1=O)NCCCN1CCN(Cc2ccccc2)CC1 (stereo not given)	i	-0.15
COc1cc(NC(=O)CSCc2ccc(Cl)cc2Cl)c(C(=O)O)cc1OC	i	2.13
O=C(NCc1ccco1)c1c2c(nc3ccccc13)CCC2	i	-1.72
CCOC(=O)C1CCN(C2=NC(=O)/C(=C/c3ccc(Cl)cc3)S2)CC1	i	0.02
Cc1ccc(-c2c(C(=O)N/N=C/c3ccco3)nnn2-c2nonc2N)cc1	i	0.23
